Compound activity: PubChem, several laboratories
Bead autofluor = counter-screen for toxin protease inhibitors: compound fluorescence. fluorescence intensity (test concentration not listed). compound autofluorescence counterscreen, microsphere flow cytometry; active compounds read high. 3.1% of 360,000 active. AID 624483;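 active means at least 3 SD above the mean of all compounds, about 16000 in these data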;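 further: 100 nL of 1 mM stock went into each well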
Sa RN4220 lethal = S. aureus RN4220 growth inhibition | OD600, 16 h | inhibition, % (concentration not given with the values) | 0.33% of 330,000 active | AID 1259311;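 active means z-score of -3 or lower and OD600 up to 0.18 on both plates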;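 further: plate controls were untreated cells for no effect and reference antibiotic for full effect; stock transfer was 100 nL into about 80 µL; one replicate is shown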
BJeLR lethal = kills HRASV12-expressing BJeLR cells | BJeLR (HRASV12) viability, CellTiter-Glo ATP luminescence, 48 h; reference of the scale not given here | inhibition, % (concentration not given with the values) | 0.17% of 300,000 active | AID 1554;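 active means replicate mean above 50%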;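 further: 50 nL library stock added to about 25 µL; numbers are from one replicate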
Sa ugtP lethal = compounds lethal to S. aureus RN4220 ugtP deletion mutant. 0.54% of 330,000 active. growth inhibition, % (no concentration beside the values). OD600 growth, 16 h; some inactives read as strong as hits;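 active means z-score under -3 and OD600 up to 0.15 on both plates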;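 further: plate controls were untreated wells for no effect and antibiotic for full effect; wells of about 80 µL received 100 nL stock; the first replicate is given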
Mtb hypoxia rep = Mtb hypoxia fluorescent reporter inhibition; AID 1159583; 0.1% of 300,000 active; fluorescence inhibition, % (concentration not given with the values); M. tuberculosis hypoxia-regulated fluorescent reporter, fluorescence;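 active means 35 to 45% if threefold the growth effect, above 45% if 1.5-fold the growth effect; inactive means the rest, general growth blockers included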;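 further: wells of about 50 µL received 100 nL stock; 0% = vehicle wells and 100% = reference inhibitor wells; whole bacteria with a GFP reporter of the hypoxia response; strong numbers were not always called active; many hits fall short of the cut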
PrP UTR inh = inhibition of PrP 5' UTR reporter expression; cell-based PrP 5' UTR mRNA reporter, plate reader; inhibition, % (concentration not given with the values); 0.35% of 340,000 active; AID 488862;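 active means every replicate at 50% or more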;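 further: 0 = median of the neutral control wells; tested in H4 reporter cells; numbers are from one replicate; inactives centre near -14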
Mtb hypoxia rep growth = second read-out of Mtb hypoxia rep, no call of its own (marks repeat the call); growth inhibition, %; measured here: M. tuberculosis growth (absorbance);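 0% = vehicle and 100% = reference antibiotic; read after six days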
Active calls of the source: *; . = no result given.

SMILES | Bead autofluor | Sa RN4220 lethal | BJeLR lethal | Sa ugtP lethal | Mtb hypoxia rep | Mtb hypoxia rep growth | PrP UTR inh
COc1ccc(NC(=O)CSc2nccn2Cc2ccc(F)cc2)c(OC)c1 | 6176 | -1.5 | -7.0 | 1.2 | 11.8 | 1.5 | -12.0
CCOCCCNC(=S)N1CCC(NC(=O)c2ccco2)CC1 | 5437 | 3.7 | 3.0 | 6.4 | 2.7 | 11.2 | -16.2
Cn1c(SCC(N)=O)nnc1-c1cnccn1 | 4360 | 4.5 | 4.3 | 5.2 | 13.2 | 9.4 | -15.2
CN(CCC1CCOCC1)C(=O)c1cc(COc2c(F)cccc2F)on1 | 6068 | 7.4 | 0.4 | 1.5 | 3.0 | 9.0 | -12.6
C[C@@H]1CC(=O)[C@H]2CC(CO)=CCC[C@@H]2[C@@]1(C)CC/C(=C/CO)CO | 5091 | 7.5 | . | -4.9 | . | . | -15.3
CCOC(=O)Cn1c(=NC(=O)CSC(C)=O)sc2cc(F)ccc21 | 5396 | 3.4 | 0.5 | -2.7 | -0.6 | -1.1 | -3.5
C(=NNc1nccs1)c1cccnc1 | . | 3.3 | . | 12.1 | -5.3 | 7.0 | .
Cc1ccc(N=Cc2nc(-c3ccco3)oc2O)cc1 | 6916 | 4.2 | -5.2 | -8.2 | 8.5 | 4.6 | -46.8
COC(=O)c1cc(=O)c2ccc(OC)cc2o1 | 15842 | 4.2 | . | 0.1 | 0.2 | 4.6 | -10.2
COCCN(C(=O)/C=C/c1ccccc1)c1nnc(-c2cccnc2)s1 | 3368 | -1.4 | -0.5 | -2.6 | -8.5 | 5.9 | -14.9
O=C(Cn1cnc2scc(-c3ccc(F)cc3)c2c1=O)NCC(c1ccco1)N1CCCC1 (configuration not stated) | 7709 | -0.2 | . | 7.5 | 16.8 | 1.0 | -22.3
Cc1ccc2nc(-c3ccc(NC(=O)CSc4ccccc4)cc3)[nH]c2c1 | 10627 | -5.3 | 10.7 | 0.6 | 11.3 | -0.3 | -110.2

2 compounds drawn at random from those above:
SMILES | Bead autofluor | Sa RN4220 lethal | BJeLR lethal | Sa ugtP lethal | Mtb hypoxia rep | Mtb hypoxia rep growth | PrP UTR inh
CCOCCCNC(=S)N1CCC(NC(=O)c2ccco2)CC1 | 5437 | 3.7 | 3.0 | 6.4 | 2.7 | 11.2 | -16.2
CN(CCC1CCOCC1)C(=O)c1cc(COc2c(F)cccc2F)on1 | 6068 | 7.4 | 0.4 | 1.5 | 3.0 | 9.0 | -12.6

Entries shown so far that contain an aryl methoxy group, in the order listed:
SMILES | Bead autofluor | Sa RN4220 lethal | BJeLR lethal | Sa ugtP lethal | Mtb hypoxia rep | Mtb hypoxia rep growth | PrP UTR inh
COc1ccc(NC(=O)CSc2nccn2Cc2ccc(F)cc2)c(OC)c1 | 6176 | -1.5 | -7.0 | 1.2 | 11.8 | 1.5 | -12.0
COC(=O)c1cc(=O)c2ccc(OC)cc2o1 | 15842 | 4.2 | . | 0.1 | 0.2 | 4.6 | -10.2

Further records follow.
SMILES | Bead autofluor | Sa RN4220 lethal | BJeLR lethal | Sa ugtP lethal | Mtb hypoxia rep | Mtb hypoxia rep growth | PrP UTR inh
O=C(COc1ccc([N+](=O)[O-])cc1)Nc1ccc(C(=O)Nc2ccccc2C(=O)O)cc1 | 3137 | -0.7 | 3.7 | 0.8 | -2.8 | 7.2 | -28.3
Cn1nc(-c2ccc(Cl)cc2)c2cc(C(=O)N3CCCC3)sc21 | 5694 | 8.2 | 3.3 | 4.1 | . | . | -16.9
O=S(=O)(NC1CCCCC1)c1cccc2nsnc12 | 4467 | 2.2 | -2.8 | -3.1 | -2.1 | -4.8 | -1.2
Oc1ccc(Cl)cc1/C=C/c1ccc2cccc(O)c2n1 | 4138 | 14.8 | 6.0 | 26.6 | -2.0 | 0.9 | -19.0
COc1ccc(C)cc1NC(=O)CCNC(=O)Cn1ccc2ccccc2c1=O | 3657 | . | 8.8 | . | . | . | -19.0
COc1cc(/C=C2\SC(c3ccccc3)=NC2=O)cc(Cl)c1O | 3776 | 21.9 | -1.1 | -13.2 | 5.9 | 3.2 | -21.5
CC(C)CN1CCC(=O)N(C(CSc2ccccc2)Cc2ccccc2)CC1 (configuration not stated) | . | 5.0 | . | 4.1 | 0.4 | 12.1 | .
O=C(CCc1ccccc1)Nc1ccc(NC(=O)C2CC2)nc1 | 3622 | -4.0 | -5.3 | 3.2 | . | . | -9.5
O=C(Cc1c(F)cccc1Cl)Nc1ccc(S(=O)(=O)Nc2nccs2)cc1 | 4549 | 11.4 | -5.8 | 3.1 | 16.9 | 8.6 | -8.4
O=C(Nc1nnc(-c2ccco2)o1)c1ccc(S(=O)(=O)N2CCOCC2)cc1 | 3072 | 1.9 | -12.0 | 11.9 | 6.0 | 16.6 | -18.7
COc1ccc2nc(NC(=O)C3CCCN(S(=O)(=O)c4cccs4)C3)sc2c1 (configuration not stated) | 2674 | -0.2 | -8.7 | 2.2 | . | . | -16.4
Cc1cc(NC(=O)COC(=O)CCS(=O)(=O)c2cc(Cl)ccc2Cl)no1 | 4634 | 1.6 | 0.4 | 11.7 | 5.4 | 2.1 | -26.1
NC(=NS(=O)(=O)c1ccccc1)c1ccc([N+](=O)[O-])cc1 | . | 6.9 | . | 13.2 | 0.0 | 8.8 | .
CN=c1scc(-c2cc(OC)ccc2OC)n1N=Cc1c(C)[nH]c2ccccc12 | . | -6.5 | . | -29.7 | 6.9 | 11.0 | .
O=C(c1cnc2sccn2c1=O)N1CCCc2ccccc21 | 4395 | 8.8 | 3.4 | 4.0 | -5.9 | 4.7 | -16.2
Cc1cccc(N/C(N)=N/c2nc(CSc3ccc(Cl)cc3)cc(=O)[nH]2)c1 | . | 1.1 | 12.3 | -8.7 | -0.2 | -2.2 | .
COCCNC(=O)Cn1nc(Cc2ccncc2)c2ccccc2c1=O | 3168 | 1.7 | 9.0 | 16.1 | 0.7 | -8.2 | -7.9
Nc1cc(N)nc(SCC(=O)NC(=O)NC2CCCC2)n1 | 2957 | 4.7 | . | 7.3 | . | . | 0.2
O=C1N=c2ccccc2=C1c1sc(=S)n(NC(=O)c2ccccc2)c1O | 4004 | . | 10.3 | . | . | . | -7.9
COC(=O)c1cnc2ccccc2n1 | 4907 | 2.1 | 6.6 | 1.5 | . | . | -11.8
CN(C)S(=O)(=O)c1ccc(Cl)c(NC(=O)COC(=O)c2cc(-c3ccccc3)nc3ccccc23)c1 | 9223 | 11.9 | -12.0 | -5.7 | -1.9 | -0.3 | -2.2
COc1cc(C)ccc1OCc1cc(C(=O)N2CCC(c3ccc(F)cc3)C2)no1 (configuration not stated) | 6445 | 1.4 | -2.9 | -1.8 | 0.7 | 0.4 | -57.9
O=C(CCC(=O)N1CCOc2ccc(Cl)cc21)N1CCN(c2ccccn2)CC1 | 4045 | 5.8 | -14.1 | -3.7 | 2.1 | 5.9 | -11.9
Cc1ccc(S(=O)(=O)c2nc(-c3ccco3)oc2N2CCC(C)CC2)cc1 | 3717 | 2.3 | -5.9 | 10.0 | 1.3 | -1.0 | -2.9
Cc1ccc2nc(-c3ccccc3)c(NC(=O)c3ccco3)n2c1 | 2865 | 3.6 | 2.7 | 12.1 | 7.0 | 9.9 | -16.1
CCOc1ccccc1Oc1coc2cc(O)ccc2c1=O | 2471 | 3.5 | -0.3 | 2.4 | . | . | -32.8
CNC(=O)CSc1nc(N)c2c3c(sc2n1)CCC3 | 8702 | 6.7 | . | -10.8 | 9.2 | 19.0 | .
Cc1ccc(NC(=O)c2csc3c2CCCC3)cc1 | 4183 | 14.2 | 15.3 | 6.9 | 5.3 | -4.0 | -79.7
O=C(CSC1=NS(=O)(=O)c2ccccc2N1)Nc1nccs1 | 5616 | -2.9 | 0.3 | 0.6 | -2.0 | 4.4 | 0.8
Cc1ccc(NC(=O)CCSc2nnc(Cc3ccccc3)o2)cc1 | 2393 | 0.9 | 10.2 | 10.3 | 19.5 | 4.3 | -11.3
Cc1ccc(S(=O)(=O)NCc2ccncc2)cc1C | 4213 | 5.6 | 21.0 | 8.0 | 7.7 | 2.4 | -13.7
Nc1ccccc1-c1ccccc1N | 2187 | 0.3 | -4.9 | -2.3 | 11.5 | -7.0 | -10.2
CC(C)(C)NC(=O)C(Cc1ccccc1)N1C(=O)c2ccccc2C1=O (configuration not stated) | 3280 | 1.2 | 3.5 | 2.0 | -11.0 | -6.0 | -35.1
COc1cccc(C=NNc2nnc(C)n2N)c1OCc1ccccc1Cl | . | 5.9 | . | 4.0 | 18.0 | 5.2 | .
COc1ccc(C2=NS(=O)(=O)N(C)C(C(=O)NC3CCCC3)=C2)cc1OC | 5144 | 3.5 | 7.6 | -2.3 | 2.3 | 4.5 | -21.9
CC(NC(=O)c1cccs1)c1n[nH]c(=S)n1C (configuration not stated) | 2253 | -2.8 | 1.4 | 3.0 | 0.0 | -13.1 | -15.1
O=C(COc1ccc([N+](=O)[O-])cc1)N1CCc2ccccc2C1 | 3729 | -0.8 | 5.2 | 2.9 | 3.4 | 9.4 | -12.4
Cc1ccc(N(CC(=O)NCc2ccco2)C(=O)CCC(=O)Nc2nccs2)cc1C | 5622 | -0.8 | -4.7 | 14.8 | 1.8 | 6.6 | -9.9
CC1(C)C=C2[C@H]3CC[C@@H]4[C@@]5(C)CCC(=O)C(C)(C)[C@@H]5CC[C@@]4(C)[C@]3(C)CC[C@@]2(C(=O)O)CC1 | 2877 | . | 8.7 | . | . | . | -9.9
Cn1c(=O)c2c(n(C)c1=O)=NC1(CCCCC1)N=2 | 3268 | 7.8 | 5.3 | 12.0 | 3.3 | 3.4 | -9.0
CC(NS(=O)(=O)c1cccc(S(=O)(=O)c2ccccc2)c1)C(=O)O (configuration not stated) | 2274 | 2.3 | 1.6 | 5.6 | -0.9 | -3.5 | -16.5
CCSc1nnc2n1C(C)(C)Cc1ccccc1-2 | 2678 | 3.0 | 3.2 | 4.2 | 2.9 | 8.0 | -42.2
O=C(CSc1cn[nH]n1)Nc1ccc(O)c(C(=O)O)c1 | 3448 | 3.3 | 2.8 | 9.6 | 4.3 | 7.6 | -20.2
O=C(C(=O)c1cccnc1)c1cccnc1 | 3457 | 3.3 | -3.2 | 5.6 | -1.8 | -2.6 | -9.7
CCc1nc(C#N)c(N2CCCCC2)o1 | 2648 | 4.4 | -2.1 | 6.2 | 17.4 | 1.1 | -10.4
C=CCCCCCCCCC(=O)NN | 6457 | 7.0 | 0.2 | 1.6 | -0.9 | -5.3 | -20.1
Cc1cc(C)n2nc(C)c(Br)c2n1 | 2275 | 0.8 | 8.4 | 8.5 | 5.1 | -2.3 | -2.6
Cc1nc(SCC(=O)NC(=O)NC(C)(C)C)nc(C)c1C | 3999 | 4.4 | 1.6 | -0.3 | 19.2 | 6.9 | -1.0
COC(C(=O)Nc1ccnn1C1CCN(Cc2ccc(C)o2)CC1)c1ccccc1 (configuration not stated) | 4186 | 6.3 | -5.2 | 15.2 | 13.0 | -2.4 | -2.7
COc1ccc(-c2nnc(NC(=O)c3ccccc3[N+](=O)[O-])s2)c(OC)c1 | 6721 | -8.1 | -18.7 | -5.3 | 7.5 | 4.7 | -20.0
CCCn1c(SCC(=O)N2c3ccccc3CC2C)nnc1-c1ccco1 (configuration not stated) | 3617 | 4.9 | -0.2 | 10.6 | . | . | -31.2
Cc1ccnc(N(C(=O)Nc2ccccc2)C2=NCC(C)(C)S2)c1 | 6143 | 2.4 | 1.7 | -3.2 | 11.3 | 1.5 | .
COc1ccc(CNC(=O)C/C(C)=N/NC(=O)COc2ccccc2)cc1 | 4490 | . | 7.5 | . | . | . | -15.7
CC(C)CNS(=O)(=O)c1ccc(CCC(=O)Nc2ccc3c(c2)OCCO3)cc1 | 2473 | 3.2 | 6.4 | 1.0 | 16.6 | 17.0 | -9.4
CC(O)C1CN=C(N)N1CC1CCCCC1 (configuration not stated) | . | 3.3 | . | -5.5 | 2.5 | 5.9 | .
Cc1ccsc1/C=C1\SC(=S)N(CC2CCCO2)C1=O (configuration not stated) | 4396 | 45.4 | -15.8 | 5.4 | 19.4 | 9.4 | -28.9
CC(=O)c1cccc(NC(=O)CNC(=O)c2sc3ccccc3c2Cl)c1 | 4295 | 1.7 | 7.1 | -1.0 | -0.2 | -4.4 | -8.7
O=C(CCNC(=O)c1ccc([N+](=O)[O-])cc1)Nc1ccc(F)cc1F | 3791 | 3.0 | 1.0 | 1.2 | -1.3 | 9.4 | -5.0
CCN(CC(=O)NCc1ccc(F)cc1)C(=O)C(C)Oc1cccc(Cl)c1 (configuration not stated) | 6086 | 2.5 | . | 3.9 | 3.3 | 11.8 | -15.1
